Lassa entry inh: inhibitors of Lassa virus binding or cell entry; Lassa virus pseudotype entry inhibition, cell reporter; control for the full effect not named in the record; Potency, µM (titrated, usually from 37.9 µM), for the others: at the highest dose activity change, negative = inhibition, hits mostly inhibitors; 1.2% of 300,000 active; AID 540256; active means well fitted inhibition curve with a large enough effect; inconclusive means small, poorly fitted or top-dose-only effect, or effect the other way; inactive means flat fitted curve, though single readings scatter; tested in HEK293 cells; further: on the % scale 0 is the no-effect control and ±100 the full control effect; nearly all actives have a fitted effect of over 50% in size; luciferase read-out
NS1 function inh: inhibitors of influenza NS1 protein function; S. cerevisiae slowed by influenza A NS1, growth recovery by OD600; Potency, µM (top dose mostly 46.1 µM), for inactives: at the top dose activity, positive = more growth; 0.4% of 270,000 active; AID 2326; active means well fitted rising curve with a large enough effect; inconclusive means small, poorly fitted or top-dose-only effect; inactive means no such curve, though single readings can be large or run the other way; further: nearly all actives have a fitted effect of over 50% in size
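OD600 was taken as the measure of yeast growth restored by compound in an NS1-expressing S. cerevisiae strain. Cells had been washed out of glucose medium and diluted 1:100 into galactose -URA medium, pH 6.0.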
Cruzain inh Det: blocks cruzain activity in presence of Triton detergent. Potency, µM, for the others: max response, negative = inhibition, usual class: inhibitors. AID 1478. 0.43% of 200,000 active. purified cruzain, Z-FR-AMC fluorescence, 0.01% Triton;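 further: plate controls were neutral wells for no effect and buffer without enzyme for full effect; nearly all actives have a fitted effect of over 40% in size; top concentration of the series not given in the record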
Target sequence (P25779 123-467 limits assumed): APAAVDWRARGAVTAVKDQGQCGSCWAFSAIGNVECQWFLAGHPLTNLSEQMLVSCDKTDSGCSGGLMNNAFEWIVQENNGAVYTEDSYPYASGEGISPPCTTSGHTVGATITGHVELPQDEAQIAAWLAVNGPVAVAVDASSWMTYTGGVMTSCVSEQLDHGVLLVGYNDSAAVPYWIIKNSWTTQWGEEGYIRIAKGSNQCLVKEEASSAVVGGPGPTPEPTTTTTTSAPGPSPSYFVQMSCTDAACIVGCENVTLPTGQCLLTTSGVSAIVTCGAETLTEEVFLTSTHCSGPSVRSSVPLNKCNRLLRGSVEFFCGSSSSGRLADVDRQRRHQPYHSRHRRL
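Detergent-containing run (0.01% Triton X-100) in acetate buffer pH 5.5 with 5 mM DTT: enzyme at 1.5 nM final, 15 min compound preincubation at room temperature, then 2 uM Z-FR-AMC substrate. Activity taken as 60 s fluorescence increase at 360/450 nm.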
SARS PLpro yeast: SARS-CoV PLP inhibition in yeast; Potency, µM (series often up to 32.9 µM), without a hit: at the highest dose activity, positive = growth rescue; S. cerevisiae expressing SARS-CoV PLpro, growth rescue; control for the full effect not named in the record; AID 485353; 0.19% of 330,000 active; active means well fitted rising curve with a large enough effect; inconclusive means small, poorly fitted or top-dose-only effect; inactive means no such curve, though single readings can be large or run the other way; further: 0% is about no effect; nearly all actives have a fitted effect of over 55% in size; growth read by luminescence after 48 h
StopGo reporter: FMDV 2A StopGo reporter, luciferase signal; human cells with a luciferase reporter of 2A StopGo recoding; control for the full effect not named in the record; Potency, µM (series often up to 57.9 µM), inactives show top-dose signal change, negative = less light; 1.2% of 410,000 active; active = well fitted falling curve with a large enough effect; inconclusive = small, poorly fitted or top-dose-only effect; inactive = no such curve, though single readings can be large or run the other way; tested in HEK293T cells; further: on the % scale 0 is the no-effect control and ±100 the full control effect; nearly all actives have a fitted effect of over 45% in size; luciferase light after 4 h
Cruzain noTriton: cruzain (T. cruzi) inhibition without detergent; P25779; purified cruzain, Z-FR-AMC fluorescence, no detergent; Potency, µM, without a hit: max response, negative = inhibition, most hits filed as inhibitors; 2.3% of 200,000 active; AID 1476;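 further: plate controls were enzyme without inhibitor for no effect and buffer without enzyme for full effect; nearly all actives have a fitted effect of over 40% in size; top concentration of the series not given in the record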
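Purified cruzain at 1.5 nM, pre-incubated 15 min with compound at room temperature in 100 mM sodium acetate pH 5.5, 5 mM DTT, 0.00005% Triton X-100. Reaction started with 2 uM Z-FR-AMC; AMC fluorescence increase over 60 s gives rate.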
Marburg entry inh: Marburg virus entry inhibition; 1.8% of 300,000 active; Marburg virus pseudotyped entry inhibition, cell reporter; control for the full effect not named in the record; about a third of the inactives were read at about 46 µM; Potency, µM (highest dose often 37.8 µM), without a hit: at the top dose activity change, negative = inhibition, hits mostly inhibitors; active = well fitted inhibition curve with a large enough effect; inconclusive = small, poorly fitted or top-dose-only effect, or effect the other way; inactive = flat fitted curve, though single readings scatter; tested in HEK293 cells; about a fifth of its hits are not listed in these tables; further: on the % scale 0 is the no-effect control and ±100 the full control effect; luciferase read-out
RE007 growth inh: less growth of the S. pombe RE007 Vpr strain. S. pombe RE007 Vpr strain, BacTiter-Glo ATP luminescence, 24 h; control for the full effect not named in the record. 0.21% of 360,000 active. Potency, µM (highest dose often 92.2 µM), without a hit: top-dose activity change, negative = less growth; active = well fitted falling curve with a large enough effect; inconclusive = small, poorly fitted or top-dose-only effect; inactive = no such curve, though single readings can be large or run the other way;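 further: on the % scale 0 is the no-effect control and ±100 the full control effect; nearly all actives have a fitted effect of over 50% in size; the assay follows cell death caused by Vpr and the record does not say whether a fall means rescue or toxicity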
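Fission yeast strain RE007, carrying one chromosomally integrated HIV-1 vpr copy, was seeded at OD 0.01 in PMG+AL medium with 23 nL pinned compound. After 24 h at 30 °C and 99% humidity, viability was read by BacTiter-Glo luminescence.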
An asterisk follows results filed as active; ? = inconclusive; . = not tested or not shown; & = joins results of further samples; [ ] = dose if it differs, or a comment. Unless noted, the call rests on the fitted dose curve; in most records, active means well fitted curve in the direction sought with a large enough effect; inconclusive means small, poorly fitted or top-dose-only effect, or another doubt; inactive means no such curve, though single readings can be large; an effect the other way counts as inactive or inconclusive. Potency means the concentration at half of the fitted maximal effect.

#1 O=S(=O)(O)c1nc2ccccc2n1Cc1ccccc1
#2 CCCCC(=O)Nc1ccc(C(=O)NNC(=O)c2ccc(C)c(Br)c2)cc1
#3 CN(C)S(=O)(=O)c1cccc(C(=O)NCC2(N3CCOCC3)CCCCC2)c1
#4 Cc1cccc(OC(C)C(=O)N/N=C\c2ccncc2)c1 (stereo not drawn)
#5 Cc1ccc(-n2nc3c(=O)n(CC(=O)NCCc4cccs4)nc(C)c3c2C)cc1
#6 CN(C[C@H](Cc1ccccc1)N(C[C@H](Cc1ccccc1)N(CCC(C)(C)C)N=O)N=O)N=O
#7 Cc1occc1C(=O)NNC(=O)Nc1ccc(F)cc1F
#8 COc1ccc(N(CC(=O)NCc2ccc(F)cc2)S(=O)(=O)c2c(C)noc2C)cc1
#9 Nc1ccc2[nH]c(=S)sc2c1
#10 Cc1ccc(C(=O)Nc2nc3ccc(S(C)(=O)=O)cc3s2)o1
Assay by compound	1	2	3	4	5	6	7	8	9	10
Lassa entry inh	18%	-18%	.	18%[46.1 µM]	-23%[46.1 µM]	.	6%	-24%&-17%[46.1 µM]	?	5%
NS1 function inh	29%	8%	-5%	.	-4%	4%	-5%	7%	.	-4%
Cruzain inh Det	1.7%	-5.9%	.	.	.	.	-0.3%	-2.9%	.	-7.8%
SARS PLpro yeast	-4%	-13%	0%	-3%	?	1%	16%	-2%	.	-22%
StopGo reporter	-11%	-11%	4%	2%	?	-7%	-25%	15%&-7%	27%	-4%
Cruzain noTriton	-6%	?	.	.	.	.	10%	-4%	.	-22%
Marburg entry inh	?	-5%	.	5%[46.1 µM]	-7%[46.1 µM]	.	10%	?	-3%[46.1 µM]	6%
RE007 growth inh	-20%	1%	5%	10%	18%	4%	-11%	5%	?	?

#11 CCCCN1C(=O)C(C)=C(C)C1OCCc1ccc(OC)c(OC)c1 (stereo not drawn)
#12 COc1cccc(C(=O)Nc2ccccc2C(=O)OCc2cc(=O)n3nc(C)sc3n2)c1
#13 O=Cc1ccccc1-n1cccn1
#14 Cc1csc(=O)n1CCC(=O)OCC(=O)Nc1ccc(F)c(F)c1F
#15 O=C(CCC(=O)c1cccs1)Nc1ccccc1F
#16 Nc1ccccc1Sc1nc2ccccc2[nH]1
#17 NC(=O)c1ccc(NC(=O)CCC(=O)N2CCN(S(=O)(=O)c3ccc(Cl)cc3)CC2)cc1
#18 C/C(Cc1ccccc1)=N\NC(=O)CNC(=O)c1cccc(F)c1
#19 CCOP(=O)(OCC)c1nc(-c2ccc(Cl)cc2Cl)oc1N1CCCCC1
#20 CCOC(=O)c1c(NC(=O)COc2cccc(C(F)(F)F)c2)sc2c1CCC(C)C2 (stereo not drawn)
Assay by compound	11	12	13	14	15	16	17	18	19	20
Lassa entry inh	.	?	8%	16%	0%	.	.	16%[46.1 µM]	6.3µM*	2%[46.1 µM]
NS1 function inh	3%	.	.	.	-8%	.	5%	9%	.	.
Cruzain inh Det	.	1.6%	.	.	1.2%	.	.	.	.	1.0%
SARS PLpro yeast	14%	.	2%	10%	1%	-6%	-1%	-3%	-6%	.
StopGo reporter	-25%	12%	-12%	-12%	61%[activator]	23%	-12%	34%[activator]	-20%	-9%
Cruzain noTriton	.	4%	.	.	3%	.	.	.	.	3%
Marburg entry inh	.	.	?	6%	?	7%[46.1 µM]	.	?	?	.
RE007 growth inh	17%	.	6%	-5%	-8%	13%	1%	-7%	25%	.

#21 COC(=O)[C@H]1C[C@@H]1[C@H](NC(=O)c1ccccc1)c1ccccc1
#22 CCn1c(N)c(C(=O)N2CCOCC2)sc1=S
#23 Cc1cnc(C(=O)N2CCCC(C(=O)c3cccc(OC(C)C)c3)C2)cn1 (stereo not drawn)
#24 Cc1cc(=O)oc2cc(OCCSCCN3CCOCC3)ccc12
#25 CCn1cc(C(=O)O)c(=O)c2cnc(N3CCN(C(=S)Nc4ccc(F)cc4)CC3)nc21
#26 Cn1cccc1-c1cc2n(n1)CCC(=O)N2CCCC(=O)NCc1cccc(Cl)c1
#27 CN(CCC(=O)c1ccccc1)CCC(=O)c1ccccc1
#28 COc1ccc(N2CCN(C(c3ccccc3)c3sc4nc(C)nn4c3O)CC2)cc1 (stereo not drawn)
#29 O=C(CSc1nnc(-c2ccccc2)n1Cc1ccco1)Nc1ccc2c(c1)OCCO2
#30 CN1CCN(C(=O)N2c3ccccc3C=Cc3ccccc32)CC1
Assay by compound	21	22	23	24	25	26	27	28	29	30
Lassa entry inh	6%	23%	.	15%	.	-7%[46.1 µM]	6%[46.1 µM]	.	4%	?
NS1 function inh	-5%	-40%	1%	?	5%	.	2%	-17%	-14%	-15%
Cruzain inh Det	1.2%&1.3%	4.3%	.	-2.3%	.	-3.2%	.	.	-7.3%	1.3%
SARS PLpro yeast	11%	-1%	1%	-8%	1%	.	0%	-3%	2%	2%
StopGo reporter	-14%	-11%	-2%	-10%	-8%	-3%	-20%	14%	11%	22%
Cruzain noTriton	2%&-2%	-18%	.	3%	.	?	.	.	-17%	1%
Marburg entry inh	3%	-10%	.	25%&25%	.	.	?	-2%	7%	10µM*
RE007 growth inh	2%	1%	27%	-23%	6%	.	-10%	7%	15%	-8%

Among those listed so far, these have a furan ring, fused or not:
#7 Cc1occc1C(=O)NNC(=O)Nc1ccc(F)cc1F
#10 Cc1ccc(C(=O)Nc2nc3ccc(S(C)(=O)=O)cc3s2)o1
#29 O=C(CSc1nnc(-c2ccccc2)n1Cc1ccco1)Nc1ccc2c(c1)OCCO2
Assay by compound	7	10	29
Lassa entry inh	6%	5%	4%
NS1 function inh	-5%	-4%	-14%
Cruzain inh Det	-0.3%	-7.8%	-7.3%
SARS PLpro yeast	16%	-22%	2%
StopGo reporter	-25%	-4%	11%
Cruzain noTriton	10%	-22%	-17%
Marburg entry inh	10%	6%	7%
RE007 growth inh	-11%	?	15%

Additional compounds
#31 Cc1ccc2nc(COc3ccccc3NC(=O)c3ccc(F)cc3)cc(=O)n2c1
#32 O=c1oc2ccccc2n1CSC1=NCCS1
#33 C=CCNc1nc(Cl)nc(Nc2ccccc2)n1
#34 CCCCOc1ccc(C(=O)N2CCC(c3nc4ccccc4o3)CC2)cc1
#35 CCCOC(=O)C1=C(C)NC(=O)NC1c1ccc(Br)s1 (stereo not drawn)
#36 C=CCOC(=O)C1=C[C@@H](c2ccc3c(c2)OCO3)C[C@@H](OCc2ccc(CO)cc2)O1
#37 CCOc1ccc2nc(SCC(=O)NCc3ccc(S(N)(=O)=O)cc3)sc2c1
#38 Cn1ncc2c(O/N=C(\N)c3ccc(C(C)(C)C)cc3)ncnc21
#39 COC(=O)c1ccc(NC(=O)CSc2nccn2Cc2ccc(Cl)cc2)cc1
#40 COc1ccc(NC(=O)C2CCN(C3=NS(=O)(=O)C(c4ccc(C)c(C)c4)=C3C)CC2)cc1OC
Assay by compound	31	32	33	34	35	36	37	38	39	40
Lassa entry inh	-1%[46.1 µM]	?	.	-9%[46.1 µM]	?	.	.	?	14%[46.1 µM]	-5%[46.1 µM]
NS1 function inh	.	-32%	-9%	.	.	-6%	11%	-72%	.	.
Cruzain inh Det	4.1%	-1.0%	.	-9.4%	.	.	.	.	-7.0%	-0.5%
SARS PLpro yeast	.	1%	-2%	.	0%	-3%	-4%	-20%	.	.
StopGo reporter	-10%	0%	37%[activator]	6%	-23%	5%	-6%	14µM*	-17%	2%
Cruzain noTriton	-3%	1%	.	14%	.	.	.	.	-3%	?
Marburg entry inh	.	-19%	.	-3%[46.1 µM]	-27%[46.1 µM]	.	.	?	.	.
RE007 growth inh	.	?	5%	.	19%	-8%	5%	?	.	.

#41 COc1ccc(CNCCNC(=O)c2cccs2)cc1OC
#42 COCCn1nnnc1CN1C2CCCC1CC(NC(C)=O)C2 (stereo not drawn)
#43 CC(Nc1nc(N2CCN(S(C)(=O)=O)CC2)nc2ccccc12)c1ccccc1 (stereo not drawn)
#44 CC(C)(C)OC(=O)N1CC2Cc3[nH]c(=O)ccc3C(C2)C1 (stereo not drawn)
#45 COCCOC(=O)c1c(C)oc2ccc(OS(C)(=O)=O)cc12
#46 CCOc1cc(/C=C2\C(=N)N3N=C(S(=O)(=O)CC)SC3=NC2=O)ccc1OC(=O)c1ccco1
#47 O=C(Nc1ccc(F)cc1)N1CCN(CCc2ccccc2)CC1
#48 CCc1cccc(C)c1NC(=O)CCCn1c(C)c2cnn(-c3ccccc3)c(=O)c2c1C
#49 O=C(N/C=C\c1ccccc1)NCc1ccc(Cl)cc1Cl
#50 O=C(Cn1c(=O)n(-c2cccc(Cl)c2)c(=O)c2sc3ccccc3c21)NC1CCCCC1
#51 C=CCSc1nc2ccccc2c(=O)[nH]1
#52 COc1ccc(S(=O)(=O)N2CCC(NC(=O)C3CCCCC3)CC2)cc1
Assay by compound	41	42	43	44	45	46	47	48	49	50	51	52
Lassa entry inh	22%[46.1 µM]	2%	1%	1%	.	.	5%[46.1 µM]	12%[46.1 µM]	0%	-21%[46.1 µM]	.	.
NS1 function inh	.	2%	-6%	-13%	-1%	1%	-1%	.	4%	.	-41%	5%
Cruzain inh Det	.	7.1%	-0.6%	2.0%	.	.	.	-2.9%	-3.5%	8.9%	0.4%	.
SARS PLpro yeast	-5%	4%	-13%	3%	1%	1%	-2%	.	-4%	.	-1%	-2%
StopGo reporter	-2%	28%	-10%	16%	14%	-12%	-9%	-23%	-14%	0%	9%	-1%
Cruzain noTriton	.	6%	-7%	1%	.	.	.	27%	-3%	?	?	.
Marburg entry inh	-3%[46.1 µM]	6%	?	18%	.	.	-18%[46.1 µM]	?	?	-11%[46.1 µM]	.	2%[46.1 µM]
RE007 growth inh	7%	5%	-10%	0%	6%	-3%	17%	.	15%	.	-3%	-7%

Screening data deposited in PubChem by National Center for Advancing Translational Sciences (NCATS).
